# Assay outcomes: PubChem BioAssay, National Center for Advancing Translational Sciences (NCATS)
# VDR inhibitor – vitamin D3 receptor (human) inhibition; VDR-SRC2-3 peptide fluorescence polarization, 2 h; Potency, µM, inactives show max response, negative = inhibition, usual class: inhibitors; actives 0.93% (n = 400,000); AID 504847; active = well fitted inhibition curve with a large enough effect; inconclusive = small, poorly fitted or top-dose-only effect, or another doubt; inactive = no such curve, though single readings can be large or run the other way; also: series mostly up to about 120 µM
# Target sequence (P11473 whole entry, looked up): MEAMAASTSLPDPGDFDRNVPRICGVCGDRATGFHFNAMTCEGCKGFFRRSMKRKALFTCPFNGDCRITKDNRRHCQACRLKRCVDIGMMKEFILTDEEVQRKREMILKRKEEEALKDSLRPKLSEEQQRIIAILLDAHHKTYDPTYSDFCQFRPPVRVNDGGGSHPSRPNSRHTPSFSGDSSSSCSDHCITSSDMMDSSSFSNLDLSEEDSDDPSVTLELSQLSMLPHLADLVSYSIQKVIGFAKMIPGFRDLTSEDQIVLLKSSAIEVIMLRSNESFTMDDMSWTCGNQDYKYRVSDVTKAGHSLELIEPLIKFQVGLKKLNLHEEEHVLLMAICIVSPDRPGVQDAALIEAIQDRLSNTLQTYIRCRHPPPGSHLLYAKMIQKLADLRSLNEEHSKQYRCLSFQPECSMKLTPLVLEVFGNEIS
#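 Reagent solutions, kept cold and dark, are dispensed first; compounds are then pinned in at 23 nl, plates briefly spun, and incubated 2 h at ambient temperature. Inhibition of VDR–SRC2-3 peptide binding is read by fluorescence polarization.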
# Numbers without * were called inactive; u = inconclusive; & = joins results of further samples; [ ] = another dose, or the depositor's remark. % is scaled to controls: 0 for no effect and ±100 for the full control effect; potency is read from the fitted curve at half-maximal effect. An excerpt, so the mix of outcomes need not match the whole.
smiles | VDR inhibitor
Cc1cccc(-n2c(O)c(C=NCCN3CCNCC3)c(=O)[nH]c2=S)c1 | -10.4%
COC1=CC2[C@@H]3Cc4ccc(OC)c(O)c4[C@]2(CCN3C)CC1=O (some centres not stated) | 16.1%
CCN(CC)CCCN=C(C)c1c(O)n(-c2ccc(C)cc2)c(=O)[nH]c1=O | 5.4%
CC(Cc1ccccc1Sc1ccc(O)cc1)N(C)C (configuration not stated) | -2.0%
COc1cccc(N2C(=O)NC(=O)/C(=C/c3ccc([N+](=O)[O-])s3)C2=O)c1 | u
CCN(CC)c1ccccc1 | -15.0%
CCc1ccc(N2C(=O)NC(=O)/C(=C/c3cccn3CCOc3ccc(C)cc3)C2=O)cc1 | 17.0%
CC(=O)[O][Sn]([c]1ccccc1)([c]1ccccc1)[c]1ccccc1 | 2.24µM*
CN1CCN(Cc2cn3cccnc3n2)CC1 | 5.6%
COc1ccc(OC)c(N2C(=O)NC(=O)C3(Cc4cc(C)ccc4N(C)C3)C2=O)c1 (configuration not stated) | 6.1%
COC(=O)C1=C(c2cccc(OCc3ccccc3)c2)C[C@@H]2CC[C@H]1N2C(=O)NCc1ccc([N+](=O)[O-])cc1 | 0.1%
COC(=O)C1=C(c2cccc(OCc3ccccc3)c2)C[C@@H]2CC[C@H]1N2C(=O)NCc1ccccc1OC | -17.9%
O=C(Cc1ccccc1)Oc1ccc([N+](=O)[O-])cc1 | 5.8%
O=c1c2ccccc2nc(-c2ccccc2)n1-c1ccccc1O | -16.6%
CC(C)c1ccc(-n2c(O)c(C=NCCN3CCNCC3)c(=O)[nH]c2=S)cc1 | 2.0%
CO[C@H]1[C@@H](O)CC(OC2[C@@H](O)CC(OC3[C@@H](O)C[C@H](OC4CC[C@@]5(C)C(CCC6C5CC(O)[C@]5(C)[C@H](C7=CC(=O)OC7)CCC65O)C4)O[C@@H]3C)O[C@@H]2C)O[C@@H]1C (some centres not stated) | -2.0%
CN(C(=O)c1ccco1)C1(c2ccccc2Cl)CCCCC1=O (configuration not stated) | -5.0%
O=c1c2ccccc2nc(-c2cccs2)n1-c1ccccc1 | -4.9%
CCCCCCCC(=O)NC(Oc1ccccc1[N+](=O)[O-])C(Cl)(Cl)Cl (configuration not stated) | -19.7%
COc1ccc(CCNCc2cccn2C)cc1OC | -1.8%
CCOC(=O)C(C)(CC)NC(=O)CSP(=S)(OCC)OCC (configuration not stated) | 12.5%
Cc1ccc(CN2C3CCCC2CC(NC(=O)Nc2cccc(F)c2)C3)cc1 (configuration not stated) | -6.3%
O=C1NC(=O)N(c2ccccc2)C(=O)/C1=C/c1ccc(Sc2ccccc2)o1 | u
C=Cc1ccc(Cn2c(C)c(CNCCc3cc(OC)ccc3OC)c(C(=O)O)c2C)cc1 | 0.8%
CC1NC(=O)NC(=O)C1Br (configuration not stated) | -18.8%

smiles | VDR inhibitor
O=C(Nc1ccccc1)NC1CC2CCC(C1)N2 (configuration not stated) | -0.7%
COC(=O)C1=C(c2ccc3ccccc3c2)C[C@@H]2CC[C@H]1N2C(=O)NCCO | -10.1%
CN1C(=O)C(Cc2nc3ccccc3c(=O)n2-c2ccccc2)c2ccccc21 (configuration not stated) | 0.8%
CCCCCCCCCCCCCC(=O)OC1C(C)[C@@]2(O)C(C=C(CO)C[C@]3(O)C(=O)C(C)=C[C@H]23)[C@@H]2C(C)(C)[C@]12OC(C)=O (some centres not stated) | -5.4%
CN1CCN(Cc2ccc3ccccc3c2)CC1 | -26.7%
O=C(O)C1=CCCN(CCOC(c2ccc(C(F)(F)F)cc2)c2ccc(C(F)(F)F)cc2)C1 | -9.9%
CCN(CC)c1ccc(C=C2C(=O)N(C)C(=S)N(C)C2=O)o1 | -6.2%
CCCCn1c(N)c(C(=O)OCCOC)c2nc3ccccc3nc21 | 11.1%
CCCc1[nH]nc2c1C(CCC)C(C#N)=C(N)O2 (configuration not stated) | u
O=C(O)C1C2CCC(O2)C1C(=O)Nc1ccc(Cl)cc1 (configuration not stated) | -8.8%
Cc1ccc(S(=O)(=O)NP(=O)(Oc2ccccc2)Oc2ccccc2)cc1 | 24.9%
O=C(CF)N(O)c1ccc(C=Cc2ccccc2)cc1 | -28.0%
COc1cc(O)cc2c1C(=O)OC(C)CCCC(=O)CCC/C=C\2 (configuration not stated) | -14.4%
COc1ccccc1N1CCN(Cc2ccc(F)cc2)CC1 | 0.2%
CSc1ccc(CNC2CN3CCC2CC3)cc1 (configuration not stated) | 23.5%
CC(O)(CS(=O)(=O)c1ccccc1)C(=O)Nc1cccc(C(F)(F)F)c1 (configuration not stated) | 0.7%
CCC(C)N=Cc1c(O)n(-c2ccccc2)c(=O)[nH]c1=O (configuration not stated) | u
Cc1ccc(S(=O)(=O)Oc2ccccc2C=C2C(=O)N(C)C(=O)N(C)C2=O)cc1 | u
CNCC(=O)c1ccccc1 | u
O=C(Nc1ccccc1)c1c(O)c2c(n(Cc3ccco3)c1=O)CCCC2 | -12.1%
N#CCC(=O)NN1Cc2ccccc2C1=N | -4.6%
O=C1Nc2ccc(Cl)cc2C(c2ccccc2)=NC1O (configuration not stated) | -1.7%
CCCCCSc1cc(OC)c(CCN(C)C)cc1OC | -15.0%
C[C@@H]1C[C@H](C)C[C@H](C)[C@@H](O)CC(=O)O[C@H]([C@H]2CCC[C@H]2C(=O)O)C/C=C/C=C(/C#N)[C@H](O)[C@@H](C)C1 | u
CCCN(CCC)CCc1ccc(O)c(O)c1 | 10.3%

# 4 of the compounds above, field by field.
> O=C(Nc1ccccc1)NC1CC2CCC(C1)N2 (configuration not stated)
- VDR inhibitor: -0.7%

> O=C(O)C1C2CCC(O2)C1C(=O)Nc1ccc(Cl)cc1 (configuration not stated)
- VDR inhibitor: -8.8%

> Cc1ccc(S(=O)(=O)NP(=O)(Oc2ccccc2)Oc2ccccc2)cc1
- VDR inhibitor: 24.9%

> COc1ccc(OC)c(N2C(=O)NC(=O)C3(Cc4cc(C)ccc4N(C)C3)C2=O)c1 (configuration not stated)
- VDR inhibitor: 6.1%

# Additional records follow.
smiles | VDR inhibitor
Cc1cccc(OP(N)(N)=O)c1C | 6.0%
FC(F)(F)c1ccccc1CCN1CCNCC1 | -12.9%
O=c1[nH]c2ccccc2n1C1CCN(CCCC(c2ccc(F)cc2)c2ccc(F)cc2)CC1 | u
CCC(C)N1C(=O)/C(=C\c2cnc(N(C)C)nc2)C(=O)NC1=S (configuration not stated) | 44.7µM*
O=c1[nH]c(=S)[nH]c(O)c1N=Nc1ccc2c(c1)OCCO2 | -2.4%
S=P(NCCSCc1ccccc1)(N1CC1)N1CC1 | -12.6%
COc1ccc(C(=O)Nc2cccc(S(=O)(=O)NCc3ccco3)c2)cc1 | -1.1%
COC(=O)C1=C(c2ccc(OCc3ccccc3)cc2)C[C@@H]2CC[C@H]1N2C(=O)NC1CCN(Cc2ccccc2)CC1 | 10.1%
C=CCC(O)(C(=O)OC)c1ccccc1 (configuration not stated) | 3.0%
O=C(O)[C@@H]1C[C@H]2C[C@@H](CP(=O)(O)O)CC[C@H]2CN1 | 3.5%&4.2%
COc1ccc(OCC(=O)N2CCCC(N3CCN(c4ccccc4C)CC3)C2)cc1 (configuration not stated) | -0.5%
COc1ccccc1/C=C1/C(=N/O)C2CCN1CC2 | 9.4%
CC(C)CCNC(=O)CN1C(=O)CN=C(c2ccccc2)c2ccccc21 | 9.8%
CCCCn1c(O)c(C=NCc2ccc3c(c2)OCO3)c(=O)[nH]c1=O | 0.0%
Cc1cc(OCc2ccc([N+](=O)[O-])cc2)c2c3c(c(=O)oc2c1)CCCC3 | 15.5%
C[C@H](CCC(=O)O)C[C@H](C)C[C@H](C)C(=O)/C=C(\O)[C@H](C)C[C@H](C)C/C=C/[C@@H](C)[C@@H](O)[C@@H](C)[C@@H](O)C[C@@H]1CC[C@@](C)(C2CC[C@@](C)([C@@H](C)O)O2)O1 (some centres not stated) | u
O=P(Oc1ccccc1)(Oc1ccccc1)N1CCOCC1 | -16.7%
COc1cc(CC2(CCc3ccncc3)C(=O)N(C)C(=O)N(C)C2=O)cc(OC)c1OC | -3.0%
O=c1c2ccccc2nc(/C=C\c2ccccc2F)n1-c1ccc(O)cc1 | -5.2%
COc1ccc2c(C)c(CC(=O)N3C[C@H]4C[C@@H](C3)c3cccc(=O)n3C4)c(=O)oc2c1 | 6.4%
O=c1[nH]c(=O)n(C2CCCCC2)c(O)c1C=NCCCn1ccnc1 | -2.2%
Cc1cc(OC(C)C(=O)NCC2CCC(C(=O)O)CC2)c2c3c(c(=O)oc2c1)CCC3 (configuration not stated) | -0.7%
Cc1o[nH]c(=O)c1C[C@H](N)C(=O)O | 15.4%&7.8%
CCOc1cccc(CNC2CN3CCC2CC3)c1 (configuration not stated) | -11.5%
CCCn1c(C(=O)c2ccccc2OC)nc2ccccc21 | 0.8%

smiles | VDR inhibitor
CC12CCC3C(CCCC4CC(=O)CCC43C)C1CCC2O (configuration not stated) | -13.2%
Oc1cc2c(cc1CN1CCN(c3ccccc3F)CC1)OCO2 | -22.2%
CCC(=O)c1cn(Cc2ccc(C#N)cc2)c2ccccc12 | -19.4%
CC1CCCCN1Cc1cccnc1 (configuration not stated) | -8.1%
COc1cc2c(C(=O)N3CCN(C)CC3)c(C)n(C)c2cc1Br | -6.9%
Cn1cc(C(=O)NCc2ccccc2)c2ccccc21 | 12.9%
O=c1[nH]c(=O)n(Cc2ccco2)c(O)c1C=NCCCn1ccnc1 | -9.5%
Cc1nn(Cc2ccccc2)c(C)c1C(=O)OCC(=O)Nc1ccccc1SCC#N | 7.3%
COc1ccc(/C=C2\C(=N\O)C3CCN2CC3)cc1 | -4.2%
COc1cccc(C2=NOC(C(=O)N3CCC4(CC3)OCCO4)C2)c1 (configuration not stated) | 13.4%
CCOc1ccc(CN(CCc2ccc3c(c2)OCO3)Cc2ccc(C)cc2)cc1 | -5.7%
CCOc1cc2c(cc1OCC)-n1cccc1C(c1ccc(F)c(OC)c1)NC2 (configuration not stated) | 3.0%
O[C@@H]1CCCN2CCc3c([nH]c4ccccc34)[C@H]12 | 3.5%
C#CCOc1ccc(OC)cc1C(c1c(C)[nH][nH]c1=O)c1c(C)[nH][nH]c1=O | u
CC1C2Cc3ccc(O)cc3[C@]1(C)CCN2CCc1ccccc1 (some centres not stated) | -5.1%
CC(C)(C)c1ccc(-c2c(C(=O)O)c(C(=O)O)c3n2CSC3)cc1 | u
N#C/C(=C\c1ccc([N+](=O)[O-])cc1)c1nc(C2CC2)cs1 | u
CN1CC[C@]2(C)c3cc(O)ccc3N(C)[C@@H]12 | u
OC1(c2ccc(F)cc2)CCNC1 (configuration not stated) | -12.4%
COC(=O)C1=C(c2ccccc2OCc2ccccc2)C[C@@H]2CC[C@H]1N2C(=O)NCCN1CCOCC1 | -31.7%
CCC1(C)CC(CCNCc2ccc(N(C)C)cc2)(c2ccc(F)cc2)CCO1 (configuration not stated) | -2.2%
COCCCNC(=O)c1c(N)n(Cc2ccco2)c2nc3ccccc3nc12 | -11.5%
O=C(c1cc(F)ccc1F)C1CCCN(Cc2ccc3nonc3c2)C1 (configuration not stated) | -17.7%
COc1ccc(O)c(CN2CCCC(C(=O)c3sccc3C)C2)c1 (configuration not stated) | -20.1%
O=C(NC(Cc1cnc[nH]1)C(=O)O)c1ccccc1 (configuration not stated) | 1.9%

# Shown with each value named: part of the list above.
> O[C@@H]1CCCN2CCc3c([nH]c4ccccc34)[C@H]12
  VDR inhibitor = 3.5%

> C#CCOc1ccc(OC)cc1C(c1c(C)[nH][nH]c1=O)c1c(C)[nH][nH]c1=O
  VDR inhibitor = u

# Continuation:
smiles | VDR inhibitor
COc1ccc(/C=C2/C(=O)NC(=O)N(c3ccccc3)C2=O)cc1CN1C(=O)c2ccccc2C1=O | 79.4µM*
COc1ccc(/C=C2/C(=O)NC(=O)N(c3ccc(C)c(C)c3)C2=O)cc1CN1C(=O)c2ccccc2C1=O | 50.1µM*
CC(=O)[C@@H]1CC[C@H]2[C@@H]3CC[C@@H]4CC(=O)CC[C@]4(C)[C@H]3CC[C@]12C | 50.1µM*
CCCCCCn1c(O)c(C=NCCN2CCOCC2)c(=O)[nH]c1=O | -4.0%
CCOP(=O)(NC(C)C)Oc1ccc(SC)c(C)c1 (configuration not stated) | 37.8%[activator]
CC(=O)C1CCC2C3CCC4=CC(=O)CC[C@@]4(C)C3CC[C@]12C (some centres not stated) | 44.7µM*
O=c1[nH]c(=S)n(C2CC2)c(O)c1C=NCc1ccc(F)cc1 | -2.4%
NC(=O)c1cn(C2CCCCC2)c2ccccc2c1=O | -0.6%
CC(Cc1ccccc1)NCCC(=O)NC(C)Cc1ccccc1 (configuration not stated) | -0.4%
Cc1cc(C)c(C(=O)N2CCC3(CC2)OCCO3)c(C)c1 | 3.5%
CN(C)CC1CSCCC1(O)c1ccc(Cl)cc1 (configuration not stated) | -23.5%
CCOc1cc(C=C2C(=O)NC(=O)NC2=O)ccc1OS(=O)(=O)c1ccccc1 | 79.4µM*
C/C(=N\N1CCCCC1c1cccnc1)c1c(O)n(C2CCCCC2)c(=S)[nH]c1=O (configuration not stated) | 6.1%
O=c1c2ccccc2nc(-c2ccccc2)n1-c1ccncc1 | 5.8%
CC(C)CCP(=O)(O)c1ccccc1 | -6.0%
O=C(NCCN1CCOCC1)c1ccc(Cl)nc1 | 13.0%
Cc1ccccc1-n1c(CNc2ccccc2)nc2ccccc2c1=O | 12.1%
CCOC(=O)[C@]12Cc3cc(Cl)ccc3[C@H]1N(Cc1ccccc1)C(=O)c1ccccc12 | -4.2%
